# Assay outcomes deposited in PubChem by ICCB-Longwood Screening Facility, Harvard Medical School.
# GIV Gai3 FP = inhibitors of GIV peptide binding to Galpha-i3, primary screen, biochemical, fluorescence polarization, FITC-GIV GBA peptide, rat Galphai3. percent of control (FP), % (test concentration not listed). actives 0.42% (n = 210,000). 90 min; stronger effect = lower value; scaled: aluminum fluoride 0%, vehicle 100%. AID 1224905, 2016. Guanine nucleotide-binding protein G(i) subunit alpha-3 (Rattus norvegicus), P08753;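 active means replicate mean at 85% of control or lower, very high polarization wells dropped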;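 further: wells of about 15 µL received 100 nL stock; the first replicate is given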
# Target sequence (P08753 whole entry, looked up): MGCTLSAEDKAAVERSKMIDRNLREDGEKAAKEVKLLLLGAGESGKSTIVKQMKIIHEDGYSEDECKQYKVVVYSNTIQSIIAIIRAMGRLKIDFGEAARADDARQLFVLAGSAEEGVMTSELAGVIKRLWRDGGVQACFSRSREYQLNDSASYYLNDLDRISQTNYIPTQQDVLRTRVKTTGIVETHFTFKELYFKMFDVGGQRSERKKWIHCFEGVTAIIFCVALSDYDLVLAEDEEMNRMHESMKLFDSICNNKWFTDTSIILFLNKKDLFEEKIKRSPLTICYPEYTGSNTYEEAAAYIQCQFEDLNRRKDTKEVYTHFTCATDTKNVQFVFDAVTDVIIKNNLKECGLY
# HCMV NEC inh = inhibitors of HCMV UL50-UL53 interaction, biochemical, HTRF; normalized percent inhibition; inhibition, % (test concentration not listed); actives 0.15% (n = 190,000);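 active means both replicates at 50% or more, plus weaker picks with an unusually low signal ratio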;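 further: stock transfer was 100 nL into about 20 µL; 0% = negative control wells and 100% = wells with untagged competitor protein; inactives centre near -12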
# Sa growth 42C = S. aureus growth inhibition at 42 and 30 °C, primary screen, LtaS inhibitor project, RN4220, two temperatures | OD600, 20 h, 42 °C; stronger effect = lower value | relative growth, % (no concentration beside the values) | actives 0.53% (n = 170,000);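 active means growth at 42 °C up to 50% and 20 or more points under that at 30 °C, or under 10% at both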;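 further: 300 nL library stock went into each well; scaled to the means of positive and negative controls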
# Sa growth 42C second temp = also measured in Sa growth 42C; calls as there; relative growth, %; measured here: growth at 30 °C;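 optical density after 20 h as mean of two plates; 100% = untreated growth and lower means inhibition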
# The depositor's hits bear a star; · = no result given; & = joins results of further samples. An unsorted share of the library. Share with any hit: about 0.83%.
# The opening 2 entries (preview)
# Under each structure: GIV Gai3 FP	HCMV NEC inh	Sa growth 42C	Sa growth 42C second temp
[1] CNc1cc(C)nc2c(-c3ccc(C)cc3)c(C(F)(F)F)nn12
 : 96	-10	·	·
[2] COc1ccccc1CNS(=O)(=O)c1c(C)nc2sccn2c1=O
 : 106	·	106	84

# Main list, from the first entry:
# Under each structure: GIV Gai3 FP	HCMV NEC inh	Sa growth 42C	Sa growth 42C second temp
[1] CNc1cc(C)nc2c(-c3ccc(C)cc3)c(C(F)(F)F)nn12
 : 96	-10	·	·
[2] COc1ccccc1CNS(=O)(=O)c1c(C)nc2sccn2c1=O
 : 106	·	106	84
[3] CCC(C)(C)c1ccc(OCCCC(=O)Nc2ccc(Cl)c(N3C(=O)C4C5C=CC(C5)C4C3=O)c2)c(C(C)(C)CC)c1 (stereo unspecified)
 : 97	-26	·	·
[4] Cc1nn(S(=O)(=O)c2ccc(Cl)cc2)cc1-c1ccccc1
 : 104	-18	96	85
[5] Cc1ccc(C(=O)c2sc(Nc3ccccc3F)c(S(=O)(=O)c3ccccc3)c2N)c(C)c1
 : 102	·	91	100
[6] O=c1c(N2CCc3ccccc3C2)csc2ccc(Br)cc12
 : 125	·	100	92
[7] O=c1[nH]n(-c2ccc(S(=O)(=O)N3CCc4ccccc43)cc2)c(=O)c2ccccc12
 : 102	-68	73	65
[8] CN(C)c1ccc(C2Nc3ccccc3C(=O)N2CCN2CCNC2=O)cc1 (stereo unspecified)
 : 109	-8	104	93
[9] Cc1csc2c(N(C)CCO)ncnc12
 : 102	-21	92	89
[10] CCc1noc(C)c1C(=O)NCc1ccc2c(c1)OCO2
 : ·	-27	89	87
[11] CC1CCN(C(=O)Cn2c(=O)c3ccccc3n3c(=S)sc(-c4cccc(F)c4)c23)CC1
 : 109	-36	·	·
[12] CCCCNc1ccc2nnc(CCNC(=O)c3ccccc3)n2n1
 : 100	-41	98	76
[13] CCOC(=O)N1CCC(NC(=O)C2CCCN2C(=O)OCc2ccccc2)CC1 (stereo unspecified)
 : 103	-16	100	90
[14] CC(Sc1nnc(C(C)(C)C)n1N)C(=O)Nc1ccc(Oc2ccccc2)cc1 (stereo unspecified)
 : ·	-15	90	92
[15] CCCc1nn(-c2ccc(Cl)cc2)cc1C(=O)Nc1ccc(Cl)cc1
 : 100	-19	78	91
[16] COc1ccc(CC(=O)N2CC(=O)N(CCc3ccccc3)C(=O)C2)cc1
 : ·	-2	112	82
[17] COc1ccc(NC(=O)c2ccc(Br)o2)cc1
 : ·	-9	91	84
[18] O=C1N(Cc2ccccc2)c2cccc3cccc(c23)N1Cc1ccccc1
 : 103	·	113	89
[19] CCCNC(=O)Cn1nc(-c2ccc(C)cc2)c2cnc3ccc(CC)cc3c21
 : 96&103	-12	96	96
[20] Nc1ccc(Oc2ccc3c(c2)C(=O)N(Cc2ccco2)C3=O)cc1
 : 104	·	90	87
[21] CC1=C/C(=N\NC(=O)c2ccccc2)CC1
 : ·	-29	104	101
[22] Cc1ccccc1NC(=O)Cn1c(=O)n(CCC(=O)NCc2ccc3c(c2)OCO3)c(=O)c2sccc21
 : 111	-17	95	91
[23] CCOC(=O)C1=C(N)Oc2ccc(Cl)cc2C1C(C#N)C(=O)OCC (stereo unspecified)
 : 104	-38	105	101
[24] N#C/C(=C(/Oc1ccc(C#N)cc1)C(F)(F)F)c1ccccc1
 : 101	-20	65	27
[25] O=C(COc1cccc2ccc(N3CCCC3)nc12)Nc1ccc(Br)cc1
 : 98	-25	·	·
[26] COc1cccc(/C=C2\C(=O)NC(=O)N(C)C2=O)c1
 : 101	·	120	104
[27] CCOc1ccc2c(=O)c(Oc3ccccc3)c(C)oc2c1C
 : 108	-2	111	78
[28] CC(C)C(C)NC(=O)CSc1nc2ccccc2n1C (stereo unspecified)
 : ·	8	117	99
[29] CCc1c(C)sc(NC(=S)N2CCN(S(C)(=O)=O)CC2)c1C(=O)OC
 : 110	-4	100	97
[30] Cc1cc2c(=O)n(CC(=O)NCC(=O)N3CCCCC3)cnc2s1
 : 105	·	93	87

# A different layout for some results above.
item	canonical_smiles	GIV Gai3 FP	HCMV NEC inh	Sa growth 42C	Sa growth 42C second temp
16	COc1ccc(CC(=O)N2CC(=O)N(CCc3ccccc3)C(=O)C2)cc1	·	-2	112	82
17	COc1ccc(NC(=O)c2ccc(Br)o2)cc1	·	-9	91	84
18	O=C1N(Cc2ccccc2)c2cccc3cccc(c23)N1Cc1ccccc1	103	·	113	89
19	CCCNC(=O)Cn1nc(-c2ccc(C)cc2)c2cnc3ccc(CC)cc3c21	96&103	-12	96	96
20	Nc1ccc(Oc2ccc3c(c2)C(=O)N(Cc2ccco2)C3=O)cc1	104	·	90	87

# (further entries)
# Under each structure: GIV Gai3 FP	HCMV NEC inh	Sa growth 42C	Sa growth 42C second temp
[31] CCCC(C)C(=O)N1CCCCC1CC (stereo unspecified)
 : 100	-4	76	98
[32] Cc1ccccc1Nc1c(-c2cc(Br)ccc2F)nc2ccccn12
 : 104	25	84	95
[33] COc1ccc(S(=O)(=O)NC2(C(F)(F)F)NC(=O)N(CCc3ccc(OC)c(OC)c3)C2=O)cc1 (stereo unspecified)
 : 97	13	104	105
[34] COC(=O)c1cc(S(=O)(=O)N(C)CC(=O)N2CCN(c3ccc(Cl)cc3)CC2)cn1C
 : 101	-15	·	·
[35] CCCN(C(=O)CCc1nc(-c2ccccc2F)no1)c1ccccc1C
 : 97	·	112	79
[36] CC(=O)NC1=C(c2ccccc2)C(=O)c2ccccc2C1=O
 : ·	-1	61	75
[37] Cc1c(-c2cccc(NC(=O)Nc3ccccc3)c2)nc2ncccn12
 : 102	·	62	49
[38] N#CN=C1CCCCCN1CC(N)=O
 : 99	12	98	119
[39] C=CCNC(=O)c1cc2ccccc2o1
 : 107	·	78	86
[40] Cc1cc(NC(=O)C2Cc3ccccc3C(=O)O2)no1 (stereo unspecified)
 : 99	-24	102	90
[41] O=S(=O)(/C=C/c1ccccc1)NC12CC3CC(CC(C3)C1)C2
 : ·	2	57	58
[42] COc1ccc(OC)c(S(=O)(=O)Nc2cccc(-c3ccc(N4CCCCCC4)nn3)c2)c1
 : 102	·	90	89
[43] O=C(COc1ccc(Cl)cc1)N1CCCc2ccccc21
 : 110	2	106	79
[44] CCCCNS(=O)(=O)c1ccccc1F
 : ·	-2	87	93
[45] Cc1c(NC(=O)c2cc(-c3ccc(O)cc3)on2)c(=O)n(-c2ccccc2)n1C
 : 104	-5	103	101
[46] Cc1nc2n(n1)C(C(=O)NCCc1ccccc1)CC(=O)N2 (stereo unspecified)
 : 101	-1	99	92
[47] O=C(CSc1nnc(-c2ccc(Cl)cc2)c(-c2ccc(Cl)cc2)n1)NC1CCCC1
 : 100	·	104	88
[48] O=S(=O)(Cc1ccccc1)N1CC(OCc2cccc(F)c2)C1
 : 99	-8	·	·
[49] COc1ccccc1NC(=O)Nc1nc(CC(=O)Nc2ccc(Br)cc2)cs1
 : 107	-21	·	·
[50] O=c1c2sc(-c3ccccc3)cc2[nH]c(=S)n1CCN1CCOCC1
 : ·	-47	92	86
[51] CCOC(=O)C1=C(CSc2nc3sc4c(c3c(=O)n2C)CCC4)NC(=O)NC1C (stereo unspecified)
 : ·	-26	100	90
[52] N#Cc1nc(-c2ccc(S(=O)(=O)N3CCOCC3)cc2)oc1N1CCCC1
 : 100	-41	·	·
[53] COc1ccc(-n2cnc3c2C(=O)c2ccccc2C3=O)cc1
 : ·	-13	79	90
[54] COc1ccccc1N1CCN(c2ccc(=O)n(CC(=O)N3CCN(C)CC3)n2)CC1
 : 109	-30	·	·
[55] CCOC(=O)C1CCC(CNC(=O)Nc2cc3c(cc2N2CCOCC2)n(C)c(=O)n3C)CC1 (stereo unspecified)
 : 103	10	·	·
[56] NCC1CCN(S(=O)(=O)c2ccccc2)CC1
 : 102	-10	89	84
[57] CN(C)S(=O)(=O)c1ccc(NC(=O)C2CCCCC2)cc1
 : 108	-5	103	95
[58] CSc1ncccc1C(=O)OCC(=O)N1CCCc2ccccc21
 : ·	-11	104	94
[59] CC(C)Cn1cc(NC(=O)NCc2cccc(Cl)c2)c2ccccc2c1=O
 : 98	·	92	87
[60] N#Cc1cc2c(=O)c3ccccc3oc2nc1-c1cc2ccccc2o1
 : ·	-33	95	76

# Record cards, from the list above:
# `COc1ccc(OC)c(S(=O)(=O)Nc2cccc(-c3ccc(N4CCCCCC4)nn3)c2)c1` as listed: GIV Gai3 FP: 102; HCMV NEC inh: ·; Sa growth 42C: 90; Sa growth 42C second temp: 89
# `Cc1nc2n(n1)C(C(=O)NCCc1ccccc1)CC(=O)N2` (stereo unspecified) as listed: GIV Gai3 FP: 101; HCMV NEC inh: -1; Sa growth 42C: 99; Sa growth 42C second temp: 92
# `O=C(COc1ccc(Cl)cc1)N1CCCc2ccccc21` as listed: GIV Gai3 FP: 110; HCMV NEC inh: 2; Sa growth 42C: 106; Sa growth 42C second temp: 79

# (further entries)
# Under each structure: GIV Gai3 FP	HCMV NEC inh	Sa growth 42C	Sa growth 42C second temp
[61] Cc1oc(C)c2c(=O)cc(-c3ccc4c(c3)OCO4)cc(OC(=O)c3ccccc3Br)c12
 : 103	2	94	82
[62] O=C(CCOc1ccccc1F)Nc1ccc2c(c1)OCO2
 : ·	-12	82	85
[63] CC1CN(S(=O)(=O)c2ccc3c4c(cccc24)C(=O)N3)CC(C)O1 (stereo unspecified)
 : 97	·	102	81
[64] Cc1cccc(/C=C(\C#N)c2nc3ccccc3c(=O)[nH]2)c1
 : 105	-1	88	87
[65] COc1ccccc1-c1c(C)nn2c(NCCC3=CCCCC3)cc(C)nc12
 : 103	-25	·	·
[66] Cc1nc(NCC2CCCO2)c2c3c(sc2n1)CCC3 (stereo unspecified)
 : 105	-8	88	72
[67] O=c1[nH]cccc1-c1nc(-c2ccc(Cl)cc2)no1
 : 101	-31	·	·
[68] CCCCN(CC)C(=O)c1sc2ncn(CC(=O)N(CC)CC)c(=O)c2c1C
 : 98	-16	83	82
[69] COc1ccccc1Nc1ncnc2scc(-c3ccc(F)cc3)c12
 : 102	·	84	92
[70] CCOC(=O)C1CCCN(C(=O)c2ccc3c(c2)N(Cc2ccccc2F)C(=O)c2ccccc2S3=O)C1 (stereo unspecified)
 : 105	-41	100	88
[71] COc1ccc(CC(=O)OCc2nnc(C3COc4ccccc4O3)o2)cc1OC (stereo unspecified)
 : ·	-38	77	88
[72] CC(C)(C)c1cc(N=Cc2ccc(O)cc2)c(C#N)s1
 : 98	6	81	81
[73] CSc1ncc(C(=O)Nc2ccccc2C(=O)c2ccccc2)c(C)n1
 : 110	·	130	92
[74] COc1ccccc1NC(=O)c1oc2ccccc2c1NC(=O)Cc1ccccc1
 : 107	-27	105	88
[75] CC(C)(C)NCC(O)COc1nsnc1N1CCOCC1 (stereo unspecified)
 : 100	-2&-11	·	·
[76] CC(C)(C)c1cc(C(F)(F)F)c2c(=O)n(-c3ccccc3)[nH]c2n1
 : 95	-44	130	76
[77] Cc1ccc(-c2nc(C(=O)Nc3ccccc3F)c3n2CCCCC3)cc1
 : 109	-24	·	·
[78] COc1ccc(COC(=O)c2cc(O)c3ccccc3c2O)cc1F
 : ·	-92	68	59
[79] NC(=O)c1cc2cc(Cl)cc(Cl)c2oc1=Nc1ccc(C(F)(F)F)cc1
 : 105	-9	·	·
[80] COCCn1c(C)cc(C(=O)CSc2nnc(C)s2)c1C
 : 104	8	99	97
[81] NC(=O)NC(CC(=O)O)c1ccc(Cl)cc1 (stereo unspecified)
 : ·	-25	90	91
[82] COc1ccc(/C=C2/C(=N)N3C(SC)=NSC3=NC2=O)cc1
 : 106	-17	100	72
[83] O=C(CCS(=O)(=O)c1cc(Br)cc2c1N(C(=O)C1CC1)CC2)NCc1ccc(Cl)cc1
 : 99	-4	96	83
[84] COc1ccc(OC)c(NC(=O)C2=C(C)C(=O)OC23CCN(C(C)=O)CC3)c1
 : 103	-14	·	·
[85] CC(=O)c1ccc(NC(=O)C2CCC(CNS(=O)(=O)c3ccc(Br)s3)CC2)cc1 (stereo unspecified)
 : 104	-16	101	82
[86] CC(C)n1cnc(S(=O)(=O)N2CCC(C(=O)NC3CCCCC3)CC2)c1
 : 103	-28	·	·
